# E coli growth: blocks Escherichia coli growth | 330,000 compounds, 0.21% hits | OD600, 23 h; active compounds read low | OD600 absorbance (test concentration not listed);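 active means OD600 absorbance below the run mean of sample wells minus 3.6 SD, in any replicate, cut at about 0.56 in these data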;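 further: stock transfer was 300 nL into about 60 µL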
# ALR inh: human ALR oxidase inhibition via reduced H2O2. P55789. purified ALR, DTT oxidation, H2O2 HRP-luminol luminescence. inhibition, % (test concentration not listed). 290,000 compounds, 3.8% hits. AID 485317;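 active means mean and each replicate at 75% or more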;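 further: stock transfer was 7.5 nL into about 7.5 µL; 0% = neutral wells and 100% = wells with inactivated enzyme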
# Target sequence (P55789 whole entry, looked up): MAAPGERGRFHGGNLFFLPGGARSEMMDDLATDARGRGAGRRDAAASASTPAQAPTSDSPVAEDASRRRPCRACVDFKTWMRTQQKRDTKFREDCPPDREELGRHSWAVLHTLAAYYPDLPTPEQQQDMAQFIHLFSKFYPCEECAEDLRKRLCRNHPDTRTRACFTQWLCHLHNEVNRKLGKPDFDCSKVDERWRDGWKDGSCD
# Beta2AR agonist: activates human beta-2 adrenergic receptor causing internalization; P07550; Am2.2-beta2AR cells, FAP receptor internalization, flow cytometry; reference of the scale not given here; response, % (no concentration beside the values); 340,000 compounds, 0.43% hits; AID 504454;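 active means response above a set limit, near 3 SD of response in nonfluorescent compounds, cut at about 42% in these data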;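 further: stock transfer was 100 nL into about 11 µL; a reference agonist was the positive control; negative values mostly stem from fluorescent compounds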
# Target sequence (P07550 whole entry, looked up): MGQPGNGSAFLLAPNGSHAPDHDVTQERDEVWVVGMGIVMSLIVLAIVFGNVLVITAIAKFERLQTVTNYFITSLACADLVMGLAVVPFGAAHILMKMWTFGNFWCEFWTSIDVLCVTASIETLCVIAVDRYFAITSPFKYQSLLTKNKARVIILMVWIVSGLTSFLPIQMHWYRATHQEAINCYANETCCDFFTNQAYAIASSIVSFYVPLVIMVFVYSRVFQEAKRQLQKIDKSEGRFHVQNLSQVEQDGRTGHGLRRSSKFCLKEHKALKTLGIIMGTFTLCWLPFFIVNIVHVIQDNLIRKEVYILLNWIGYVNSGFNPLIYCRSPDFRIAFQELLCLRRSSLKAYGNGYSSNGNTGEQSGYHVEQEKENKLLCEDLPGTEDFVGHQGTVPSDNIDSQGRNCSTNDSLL
# UCH37 inh: blocks the human deubiquitinase UCH37. Q9Y5K5. purified proteasome/UCH37, Ub-AMC cleavage fluorescence. inhibition, % (no concentration beside the values). 330,000 compounds, 0.33% hits. AID 588478;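 active means mean of two replicates above 20%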;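 further: 0% = compound-free wells with enzyme and 100% = wells lacking proteasome; stock transfer was 100 nL into about 20 µL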
# Target sequence (Q9Y5K5 whole entry, looked up): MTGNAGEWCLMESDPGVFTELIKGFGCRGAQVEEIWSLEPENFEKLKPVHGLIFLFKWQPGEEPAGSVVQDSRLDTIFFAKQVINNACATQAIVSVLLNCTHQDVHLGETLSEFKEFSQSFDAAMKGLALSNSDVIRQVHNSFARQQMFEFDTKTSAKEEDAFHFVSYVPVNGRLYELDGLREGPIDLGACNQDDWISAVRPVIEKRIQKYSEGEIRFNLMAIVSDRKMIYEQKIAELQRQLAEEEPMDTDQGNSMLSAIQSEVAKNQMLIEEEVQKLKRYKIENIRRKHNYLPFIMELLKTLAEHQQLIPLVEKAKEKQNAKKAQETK
#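 Reagent: Ub-AMC substrate; assay system: Proteasome-associated human UCH37 deubiquitinase; controls: no-proteasome and no-compound wells; read-out: % inhibition of Ub-AMC cleavage fluorescence; timing: 30 min preincubation with enzyme, 25 min cleavage at room temperature; signal: AMC fluorescence from Ub-AMC cleavage, excitation 355 nm, emission 460 nm; buffer or medium: Tris-HCl pH 7.4 plus ovalbumin, ATP-MgCl2, DTT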
# HNF4A DNA FP: change in binding of human HNF4 alpha to DNA | activity change, % at 10 µM | AID 1224865 | P41235 | HNF4a-FITC DNA binding, fluorescence polarization, 1 h | 360,000 compounds, 0.3% hits; in the data active means activity change above about 30%, passing the limit was not always enough;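 further: controls were the assay level and a saturating level of protein; the project sought stronger binding though the title names inhibitors; some compounds called inactive have numbers as strong as hits; positive values seem to mean higher polarization but the record does not say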
# FGF22 binding: FGF22 (human) thermal shift binding; calls only at 9.99 µM; 340,000 compounds, 1.5% hits; recombinant FGF22 thermal shift, SYPRO orange fluorescence; percent of sucrose octasulfate shift, DMSO zero;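 active means melting point raised past a set limit in the mean and every replicate; three in four hits are not shown here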
# rRNA inh HTS: inhibitors of bacterial rRNA selective over humanized ribosomes. E. coli WT GFP vs humanized-ribosome RFP mutants, fluorescence, 24 h; active compounds read low; DMSO median 0, no signal -100. GFP signal change (wild-type ribosome), % (no concentration beside the values). 350,000 compounds, 1.6% hits;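 active means significant combined selectivity score with lowered wild-type GFP, culture density cut under 30%, mutant RFP and density less affected; inactive means any of these conditions unmet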; further: one replicate is shown; some compounds called inactive have numbers as strong as hits
# rRNA inh HTS OD600: further read-out of rRNA inh HTS, marked with its call; OD600 change, %; measured here: OD600 growth;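 optical density of the mix in the first replicate; 0 = DMSO median and -100 = no signal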
# rRNA inh HTS RFP: recorded beside rRNA inh HTS, whose call it bears; RFP signal change, %; measured here: RFP humanized mutant strains;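 first replicate; 0 = DMSO median and -100 = no signal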
# * hit, by the source's call; i = inactive; · = no result given; & = joins results of further samples.
Structure	E coli growth	ALR inh	Beta2AR agonist	UCH37 inh	HNF4A DNA FP	FGF22 binding	rRNA inh HTS	rRNA inh HTS OD600	rRNA inh HTS RFP
COc1ccc2nc(SCC(=O)NCc3ccc(S(N)(=O)=O)cc3)[nH]c2c1	0.69	-14	-4	2.1	-3.9	i	-1	8	-2.9
O=C1CCC(=O)N1OCCCOc1ccccc1	0.7	-18	0	2.3	7.0	·	·	·	·
Cc1ccc(-c2csc3ncnc(NCCC(=O)O)c23)cc1C	0.7	17	5	5.6	0.9	i	-10	-16	-2.8
CCN(CC(=O)NCc1ccc(Cl)cc1)C(=O)c1ccc(C#N)cc1	0.69	-14	-3	-1.3	3.4	i	3	11	0.9
CC1C(c2ccccc2)OCCN1C(=S)Nc1ccc(S(=O)(=O)N2CCCCC2)cc1 (stereo not drawn)	·	·	·	·	-0.6	i	-9	-11	-2.0
O=C(CSc1nnc(-c2c[nH]c3ccccc23)o1)N1CCCCC1	0.64	-3	-1	1.6	-0.6	·	-33*	-8.2*	0.8*
O=C(CNc1ccccc1N1CCCC1=O)Nc1cc(C(F)(F)F)ccc1-n1cncn1	0.69	·	-10	1.9	1.1	i	6	6	-0.6
Cn1c(Nc2ccc(Cl)cc2)cc(=O)n(C)c1=O	0.65	·	-9	0.6	0.2	i	11	6	0.7
COc1ccc(/C=N/Nc2nnc(-c3ccccc3)c(=O)[nH]2)cc1	·	-7	7	·	2.0	·	·	·	·
CCOC(=O)c1c(C)n2c3c(cc(C)cc13)CCC2	0.67	-13	-2	1.5	-3.9	i	-4	1	-1.0
FC(F)(F)c1ccc(NCCc2ccccc2)nc1	0.67	5	-2	1.7	-1.5	i	-1	-2	-0.7
CCCC/C=C/[C@H](c1ccccc1)[C@H](CO)Cc1cccnc1	0.79	-6	-4	-0.5	-0.6	i	-45	-73	-28
Cc1cc(NC(=O)c2ccccc2O)nc(C)n1	0.66	-1	1	2.3	-0.2	i	-16	-20	-2.1
COc1ccc(CC2(CO)CCN(Cc3c(C)nn(C(C)C)c3C)CC2)cc1	0.67	-6	0	3.5	2.1	i	18	15	0.5
COc1ccc(N2CC(C(=O)N[C@@H](C)C(=O)NC(C)c3ccccc3)CC2=O)cc1 (stereo partly drawn)	0.68	0	-2	1.2	0.4	i	1	4	-3.5
CCCNC(=O)CSc1nc2[nH]ncc2c(=O)[nH]1	0.69	2	-8	2.5	1.0	i	4	3	-1.1
Cc1ccc(CN(C)C(=O)COc2ccc(S(=O)(=O)N3CCCC3)cc2[N+](=O)[O-])c(C)c1	0.69	-3	-2	4.2	-1.9	i	-3	-11	-2.8
O=C(c1cc(-c2ccncc2)nc2ccccc12)N1CCN(Cc2ccccc2)CC1	0.7	-3	7	3.0	8.8	i	-8	-13	5.0
O=C(CSCc1ccccc1Br)NC1CC1	0.71	98*	-1	1.1	-3.4	·	·	·	·
CC(C)CC(N)c1csc(Nc2ccc(C(=O)N(C)Cc3ccccc3)cn2)n1 (stereo not drawn)	·	·	·	·	1.0	i	-35	-76	6.2
CC(Oc1ccccc1)C(=O)NC1CC(C)(C)NC(C)(C)C1 (stereo not drawn)	0.72	-9	-4	-0.2	3.2	·	·	·	·
COc1ccccc1N1CCN(Cc2cc(=O)c(OCC#N)co2)CC1	0.68	6	-3	1.4	-1.7	i	4	9	-0.6
Cc1nn(-c2ccc(C(=O)O)cc2)c(N)c1-c1ccccc1	0.69	·	11	·	-1.4	·	·	·	·
O=C(Nc1ccc(Cl)cc1)N1CCN(Cc2ccc3c(c2)OCO3)CC1	0.67	·	-4	3.8	-1.5	·	-1	-6	1.4
O=C1CC(N2CCN(c3nc4ccccc4s3)CC2)C(=O)N1Cc1cccs1 (stereo not drawn)	0.76	-2	0	2.5	-4.8	·	·	·	·
O=C(O)c1c[nH]n2c(=S)ncnc12	·	·	·	·	4.7	i	4	12	-3.8
O=C(CN1C(=O)c2ccccc2C1=O)Nc1cccc([N+](=O)[O-])c1	·	1	14	·	2.6	i	·	·	·
O=C(CCc1nnc(COc2ccccc2)o1)NCc1ccccc1	0.72	·	0	-2.5	0.3	i	17	3	1.6
CCOc1ccc(NC(=O)CC2C(=O)N(c3cccc(OC)c3)C(=O)N2C(C)C)cc1 (stereo not drawn)	0.78	-4	-9	3.6	2.3	i	-1	7	-0.8
O=C(NCCc1c[nH]c2ccccc12)C(=O)Nc1ccccc1	0.7	2	32	4.2	3.8	i	-3	-1	-0.7

# Exported with the structure last: entries from further up.
E coli growth | ALR inh | Beta2AR agonist | UCH37 inh | HNF4A DNA FP | FGF22 binding | rRNA inh HTS | rRNA inh HTS OD600 | rRNA inh HTS RFP | canonical_smiles
0.67 | 5 | -2 | 1.7 | -1.5 | i | -1 | -2 | -0.7 | FC(F)(F)c1ccc(NCCc2ccccc2)nc1
0.79 | -6 | -4 | -0.5 | -0.6 | i | -45 | -73 | -28 | CCCC/C=C/[C@H](c1ccccc1)[C@H](CO)Cc1cccnc1

# (further entries)
Structure	E coli growth	ALR inh	Beta2AR agonist	UCH37 inh	HNF4A DNA FP	FGF22 binding	rRNA inh HTS	rRNA inh HTS OD600	rRNA inh HTS RFP
C[C@H](c1ccccc1)N1C[C@H](COCc2ccccc2)Oc2cc(N3CCC[C@@H]3CO)ccc2S1(=O)=O	·	·	·	·	2.7	i	9	0	1.8
CCOC(=O)c1sc2nc(CC(=O)OC)nc(NCc3ccc(Cl)cc3)c2c1C	0.76	-15	-5	-43	-1.3	i	8	5	-4.1
Cc1nc2ccc(Br)cn2c1C(=O)N/N=C\c1ccccc1[N+](=O)[O-]	·	-4	-6	·	-3.3	i	15	9	-0.4
CCC1CCCCN1C(=O)c1nn2cccnc2c1Cl (stereo not drawn)	0.71	-5	-2	3.1	3.5	·	·	·	·
O=C(Nc1ccc(Oc2cccc(C(F)(F)F)c2)nc1)c1ccccc1	0.65	23	2	3.8	-0.2	i	8	5	3.0
Cc1cccc(OCCCC(=O)Nc2ccc(Cl)c(S(=O)(=O)N3CCOCC3)c2)c1	0.64	-2	-1	3.2	5.2	i	-19	-43	-3.9
CCOC(=O)c1c(NC(=O)c2ccc(Br)o2)sc2c1CCCC2	0.75	1	-13	-112	-2.2	·	·	·	·
NC(=O)NC(CC(=O)Nc1cccnc1)c1cccc(Br)c1 (stereo not drawn)	·	-4	0	·	0.0	i	4	6	-1.1
N#C/C(=C\c1cccnc1)C(=O)Nc1ccc(O)cc1F	0.67	·	1	2.7	0.2	i	-1	5	63
C=CCc1cc(C=O)cc(OCC)c1O	0.63	-1	-1	7.6	0.7	i	16	-3	1.5
CC1(O)CC(C)(C)C(C#N)C(=O)N1 (stereo not drawn)	0.67	·	-6	2.4	4.4	i	9	23	-2.5
CCC1Oc2ccc(C)cc2N(Cc2cccc(C)c2)C1=O (stereo not drawn)	0.71	-2	2	1.8	3.2	i	-25	-30	-4.7
CN1C(=O)[C@H]2[C@@H](C3CC3)N3C(=O)CN(Cc4ccc(-c5ccccc5)cc4)C(=O)[C@@]3(C)[C@H]2C1=O	·	-3	-6	1.2	-2.7	i	0&-1	-5&11	-2.3&-4.1
CCc1ccc(-n2c(=O)c3ccccc3n(CC(=O)NCc3ccco3)c2=O)cc1	0.71	10	2	0.4	4.5	i	12	17	1.2
COc1cc(/C=C2\SC(=O)N(CC(=O)Nc3cccc(C)c3)C2=O)cc([N+](=O)[O-])c1O	0.68	·	21	1.7	-1.8	·	-27	-15	-3.6
CC1(C)NC(=O)N(CC(O)CN(Cc2ccccc2)Cc2ccccc2)C1=O (stereo not drawn)	0.65	-17	-8	5.4	-5.6	·	·	·	·
O=C(Nc1cccc2nsnc12)c1ccc2c(c1)OCO2	0.68	-3	-3	-0.5	3.5	·	·	·	·
C1=CCN(Cc2ccccc2)C1	0.67	-12	-5	2.4	1.9	i	·	·	·
COc1ccc2c(c1)c(C(=O)CN1CCc3ccccc3C1)c(C)n2C	0.62	0	14	2.0	-1.1	i	18	-6	-2.4
Cc1cccc(N2C(=O)CC(Sc3nnc(C)s3)C2=O)c1 (stereo not drawn)	0.69	43	-2	0.5	-1.1	·	·	·	·
COC(=O)C1=C(C(=O)OC)[C@@H]2N(C)c3ccc(OC)cc3[C@@]23C[C@@H](C(=O)OC)N(C(=O)CC(C)C)C3=N1	·	12	1	0.4	-5.0	i	5	3	-2.5
Cc1ccc(Cc2cnc(N)s2)o1	0.69	99*	5	1.6	1.0	·	·	·	·
CC(=O)Nc1ccc(S(=O)(=O)N(C)c2ccc(OCC(=O)NCCc3ccccc3F)cc2)cc1	0.61	·	-10	0.5	4.6	i	-11	-23	6.0
CCc1ccc(N(CC(=O)NC(C)C)C(=O)CCC(=O)Nc2nccs2)cc1	0.69	·	-4	2.4	0.4	i	-27	-39	-4.9
COC(=O)C[C@H]1C=C[C@@H](C(C(=O)OC)C(=O)OC)CN1C(C)=O	·	·	1	·	-0.6	i	2	-4	-2.2
O=C(NC1CCCCC1)c1ccc([N+](=O)[O-])o1	0.62	-21	-5	2.7	-0.6	·	·	·	·
CCOc1cc(N2CCOCC2)c(OCC)cc1NC(=O)CSc1ncccn1	0.66	13	-4	3.2	1.2	i	5	4	-1.1
O=C(CSc1nnc(Nc2ccccc2)s1)NC1CCCC1	0.66	·	3	5.5	-3.0	i	·	·	·
O=C(Cn1c(=O)[nH]c2ccccc2c1=O)Nc1ccc2c(c1)OCO2	0.73	-9	1	4.1	0.9	i	-10	-1	-3.4
C=CCNC(=O)c1cc(Cl)ccc1Cl	0.73	-3	-11	0.0	1.2	·	·	·	·
O=c1cc(C(F)(F)F)[nH]c2ccccc12	0.65	-3	6	-5.9	0.6	i	-5	-13	0.1
Cc1ccc(-n2ncc(C(=O)NCc3ccc4c(c3)OCO4)c2NC(=O)c2ccco2)cc1C	0.67	1	-8	-0.4	1.4	·	·	·	·
CNC(=O)COC(=O)c1ccc(NS(=O)(=O)c2ccc3c(c2)OCCO3)cc1	0.66	-1	3	-0.7	0.9	i	15	3	0.7
Cc1cc(C)c2c(N)c3cccc(C)c3nc2n1	0.6	-13	8	i	-5.0	i	-11	-13	-6.7
O=C(CSc1nnc(NC(=O)C2CCC2)s1)Nc1ccccc1	0.63	3	-4	4.4	-1.1	i	-1	-3	0.7
CCCCC(=O)NC(=S)Nc1cc(C(=O)O)ccc1Cl	0.71	·	4	5.8	1.0	·	·	·	·
COc1ccccc1CN(C)C(=O)CNC(=O)c1cccc(Cl)c1	0.68	3	-3	1.2	-1.9	i	-2	4	0.6
COC(=O)c1ccc(C23CC4(C2)[C@H](CN(CC2CCCCC2)[C@@H]4c2ccccc2)C3c2ccc(Cl)nc2)cc1 (stereo partly drawn)	·	13	4	0.5	4.0	i	16	7	0.7
C=CCn1c(SCn2nnc3ccccc3c2=O)nnc1-c1ccc(Cl)cc1	0.67	·	-2	-0.6	6.3	·	·	·	·
CCC(C)(C)n1nnnc1C(c1cccnc1)N1CCC(Cc2ccccc2)CC1 (stereo not drawn)	0.7	·	-4	3.6	2.6	·	-33*	-5.7*	7.4*
CCc1ccc2nc(NC(=O)c3ccc4c(=O)[nH]c(CN5CCOCC5)nc4c3)sc2c1	0.65	0	·	-36	·	·	·	·	·
O=c1ccc(Cc2ccccn2)n[nH]1	0.71	-6	-2	0.3	0.2	·	·	·	·
COc1ccc(C(=O)/C=C/Nc2ccc(NC(C)=O)cc2)cc1OC	0.73	2	2	10	1.0	·	·	·	·

# Bioassay records: PubChem BioAssay, several laboratories

# These rows are one share of the data; rates above refer to the full screens.
